Screening results (PubChem)
NPYLR7 agonist: mosquito NPYLR7 agonism | HEK293T NPYLR7/Galpha15, GCaMP6s calcium fluorescence | activation, % at 10 µM | hit rate 0.15% among 270,000 | AID 1259423; in the data active means activation above about 40%;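 further: 0% = vehicle and 100% = reference agonist at the receptor; some compounds past the cut are filed as inactive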
NPYLR7 agonist max-min: further read-out of NPYLR7 agonist, marked with its call; activation, %; measured here: Max-Min RFU normalised activation; some inactives read as strong as hits;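 span of the calcium signal over five minutes; 0% = vehicle and 100% = native peptide agonist; compound fluorescence can raise it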
An asterisk follows results filed as active; & = joins results of further samples. Some of the compounds tested. The share of hits here may be higher or lower than overall.

SMILES	NPYLR7 agonist	NPYLR7 agonist max-min
Cc1cc(CC(=O)NC(C#N)c2ccc(Cl)cc2)no1 (stereo not given)	2&1	1&-1
CCNc1cc(NCCNC(=O)Nc2cccc(C)c2C)nc(C)n1	-1	-1
Cc1oc(-c2cccc(F)c2)nc1CC(=O)N1CCOC(COCc2ccccc2F)C1 (stereo not given)	21	34
O=C(NCCn1ncc2c(N3CCCCC3)ncnc21)C1CC(=O)N(c2ccccc2)C1 (stereo not given)	0	-2
Cc1nn(-c2ccccc2)c2sc(C(=O)N=Nc3c(O)[nH]c4ccccc34)cc12	-2	-5
Cc1cc(NS(=O)(=O)c2ccc(N=CC(C#N)c3nc(-c4ccc(F)cc4)cs3)cc2)no1 (stereo not given)	3	2
O=C1S/C(=C2\C(=O)N(Cc3ccccc3Cl)c3ccccc32)C(=O)N1Cc1ccccc1	-5	-8
CCOc1cc(/C=C2/SC(=Nc3ccccc3)NC2=O)ccc1OCC(=O)O	-10	-13
Cc1nn(C)c(C)c1C(=O)OCC1CC(=O)N(C2CC2)C1 (stereo not given)	1	1
O=C(c1ccc2c(=O)nc3c(-c4ccccc4)n[nH]n3c2c1)N1CCN(c2ccc(F)cc2)CC1	7	6
Cc1cc(O)c(C(c2ccccc2)c2c(O)cc(C)[nH]c2=O)c(=O)[nH]1	0	5
CCOc1ccc(-c2cc(=O)n(Cc3ccccc3Cl)cn2)cc1	-21	-23
CCc1cc(N2CCN(CC)CC2)nc(SCc2ccc(C(=O)NCC3CC3)o2)n1	-7	-7
Cc1cc(OC(=O)C(c2ccccc2)c2ccccc2)c([N+](=O)[O-])c(=O)[nH]1	-2	-1
CCOC(=O)c1c(C)[nH]c(C(=O)C(C)N2CC(C)OC(C)C2)c1C (stereo not given)	6	8
CC1CN(c2ccccc2)CCN1C(=O)CC1(c2ccccc2F)CC(=O)N(CCN(C)C)C1=O (stereo not given)	26	6
CCn1ccc(C(=O)Nc2cc(C)nn2-c2nc3ccc(OC)cc3s2)n1	-7	-15
COc1cccc(S(=O)(=O)Nc2ccc(Nc3cc(-n4ccnc4)ncn3)cc2)c1	-17	-21
Cc1ccc(Nc2nc(NCc3ccco3)nc3[nH]ncc23)cc1C	6	2
COC(=O)N1C[C@@H]2OC(=O)N(Cc3ccccc3)[C@@H]3CC[C@@H]1C[C@@H]23	12	13
COc1ccc2nc(-c3ccc(OC)c(NC(=O)COc4ccc(Cl)cc4)c3)cn2n1	-5	-10
CC(C)n1cnnc1SCC(=O)Nc1ccc(Cl)cc1Cl	-4	-10
Cc1cccc(NC(=O)Nc2ccnc(C(=O)N(C)C)c2)c1C	5	2
Cc1ccc(-n2nc(C(C)(C)C)cc2NC(=O)CN(C)C(=O)Nc2ccc(Br)cc2)c(C)c1	9	14
CNC(=O)c1ccc(S(=O)(=O)N2CCc3sccc3C2)cc1	-7	-7
O=S(=O)(NCCS(=O)(=O)N1CCN(c2ccccc2F)CC1)c1ccccc1	4	1
Fc1ccc(-c2n[nH]c3c2CN(CCCc2cccnc2)CC3)cc1F	19	7
Cc1ccccc1-n1c(C)nnc1SCC#N	4	0
COc1ccc(C=CS(=O)(=O)c2ccc([N+](=O)[O-])cc2)cc1OC(F)F	3	1
CCc1ccc(N2CC(c3nc4ccccc4[nH]3)CC2=O)cc1 (stereo not given)	1	-2
CCCn1nc(C(=O)NCC(c2ccccc2)N2CCc3sccc3C2)ccc1=O (stereo not given)	-1&1	12&-2
Cc1nn(C)c(-c2n[nH]c(=S)n2-c2ccc(CC(=O)O)cc2)c1Br	0	-2
Cc1nnc(-c2cc3ccccc3n2CC(=O)Nc2ccccc2C)o1	7	1
CSc1nnc(C(C)N2CCCCC2)n1-c1ccc(Cl)cc1 (stereo not given)	6	2
CCc1cnc2c(c1SCC(=O)Nc1nccs1)c(=O)n(C)c(=O)n2C	6	10
O=C(CNC(=O)C1COc2ccccc2O1)N=Nc1c(O)n(CCc2ccccc2)c2ccccc12 (stereo not given)	-3	-10
CCOC(=O)c1c(NC(=O)c2ccc(N3CCOCC3)c([N+](=O)[O-])c2)sc(C)c1C	-6	-14
O=C(CSC1CCS(=O)(=O)C1)N1CC2CC3CC(C2)CC1C3 (stereo not given)	2	9
CCC(Nc1nc(-c2ccncc2)nc2c1CNC2)c1cc(C)ccn1 (stereo not given)	4	4
COc1cccc(-c2csc(-c3nnn(-c4ccccc4)c3C)n2)c1	3	3
O=C(CSC1=NCCS1)N1c2ccccc2Sc2ccccc21	1	0
CCCCCOc1ccc(/C=C2\SC(=S)N(CC(=O)O)C2=O)cc1OC	-7	-6
COc1ccc(C(C)(C)C)cc1S(=O)(=O)N1CCN(c2ccccc2C)CC1	4	-1
CCCCCCC(=O)N(CCN1CCOCC1)CC(=O)c1c(C)c(C(=O)OC)n(CC)c1C	-9	-7
COCc1cccc(C(=O)N(CCN(C)C)Cc2ccc(C#N)cc2)c1	-5	-6
CCc1ccccc1NC(=O)Cn1c(=O)nc(N2CCC(C)CC2)c2ccccc21	-3	-3
c1ccc(CNc2nc(-c3ccccc3)[n+](-c3ccccc3)s2)cc1	-7	-11
CCC(C)NC(=O)Cn1nnn(-c2ccccc2Cl)c1=O (stereo not given)	0	0
CCCOC(=O)c1c(-c2ccccc2)nc(CC)c(C(=O)SCC)c1CCC	3	-25
CC(C)c1nc2cc(C(=O)NC3CCOC3)ccc2o1 (stereo not given)	9	4

New compounds follow.
SMILES	NPYLR7 agonist	NPYLR7 agonist max-min
c1ccc2sc(CN3CCC(c4nc5ccccc5s4)CC3)nc2c1	10	8
Cc1ccc(C2(O)CCN(c3noc(C4CC4)n3)CC2)nc1	1	-7
Nc1ccc(-c2nc3cc(N)c(Cl)cc3[nH]2)cc1	-3	-1
CN1NC(c2cccs2)C2C(=O)N(Cc3ccccc3)C(=O)C21 (stereo not given)	6	2
Cc1cccc(C)c1Nc1c(-c2ccc(C(C)(C)C)cc2)nc2ccc(Cl)cn12	1&2	10&13
CC1=C(C(=O)OC(C)C)C(c2ccc(Cl)cc2Cl)C2=C(CCCC2=O)N1 (stereo not given)	-1	-5
CCn1c(C)c(C(=O)CN(C2CCCCC2)S(=O)(=O)/C=C/c2ccccc2)c(C)c1C(=O)OC	24	29
CCc1nc2n(n1)C(=O)C(C(c1ccco1)N1CCCCC1)S2 (stereo not given)	-1	26
Cc1ccc(N2CCN(C(=O)c3ccccc3N3CCC(NC(=O)C4CCCC4)CC3)CC2)cc1C	-2	0
Cc1cc(-n2c(C)cc(C(=O)CSc3ncnc4sccc34)c2C)no1	4	9

Fetched by compound from the list above (3):
SMILES	NPYLR7 agonist	NPYLR7 agonist max-min
c1ccc2sc(CN3CCC(c4nc5ccccc5s4)CC3)nc2c1	10	8
Cc1cc(-n2c(C)cc(C(=O)CSc3ncnc4sccc34)c2C)no1	4	9
CN1NC(c2cccs2)C2C(=O)N(Cc3ccccc3)C(=O)C21 (stereo not given)	6	2

Additional compounds
SMILES	NPYLR7 agonist	NPYLR7 agonist max-min
COc1ccc(OCCn2c(CN(C)C(=O)c3ccco3)nc3ccccc32)cc1	0	1
CCCC1NC(=O)N(CC(=O)NC(C)c2ccc(C)c(C)c2)C1=O (stereo not given)	-2	-5
C=CCN1C(=O)C(=Cc2cc(Cl)c(O)c(OC)c2)SC1=S	26	23
CC(=O)NC(c1cccc(F)c1)c1nc(-c2cccc(C(=O)O)c2)cs1 (stereo not given)	3	1
Brc1ccc2nc(SCc3nc4ccccc4[nH]3)[nH]c2c1	0	-6
COCCOCC(=O)N1CCN(C(c2ccccc2)c2ccc(C)cc2)CC1 (stereo not given)	21	20
COc1ccc(-c2cc3c(=O)[nH]nc(SCC(=O)c4ccc5c(c4)OCO5)n3n2)cc1OC	-1	-3
CCc1nc2c(OCC(=O)C(C)(C)C)cccn2c1N(C=O)CC(=O)N(C)C	13	-5
O=C(NCCn1ncc2c(N3CCCC3)ncnc21)c1ccc(S(=O)(=O)N2CCCC2)cc1	1	-1
COc1cc2c(cc1OC)C(c1c(F)cccc1Cl)N(C(=O)c1ccc(-c3cccc(Cl)c3)s1)CC2 (stereo not given)	25	15
CC(C)Oc1nc(-c2cccc(C(F)(F)F)c2)n(-c2ccc(NC(=O)c3ccc(Cl)cc3)cc2)n1	21	27
Cc1ccc(-c2cc(CCl)no2)cc1	-2	-3
Cc1ccc(-c2cc(C(=O)NCCC(c3ccccc3)c3ccccc3)n(-c3ccc(Cl)c(Cl)c3)n2)cc1C	-2	2
CCOC(=O)c1cc(-c2ccc(OC)cc2)n(-c2ccc(C(=O)NCCc3cccs3)cc2)n1	0	-17
Cn1ccnc1SCC(=O)Nc1nccs1	-2	-7
COc1ccccc1COC(=O)CCNC(C)=O	1	-1
Cc1ccc(-n2ccnc(SCc3ccc(Cl)cc3)c2=O)cc1	6	4
CC1=C[C@@H](CN2CCN(c3ccccn3)CC2)[C@H](C(C)C)C[C@H]1Cc1nnc(-c2ccncc2)o1	-4	-11
CCOC(=O)C1=C(CN2CCOCC2)N(C)C(=O)NC1c1ccccc1 (stereo not given)	-3	-5
CN1CCN(C(=O)c2cnc3ccccc3n2)CC1=O	-1	-3

One compound at a time, from the list above:
Results for `Nc1ccc(-c2nc3cc(N)c(Cl)cc3[nH]2)cc1` → NPYLR7 agonist = -3; NPYLR7 agonist max-min = -1
Results for `CCCC1NC(=O)N(CC(=O)NC(C)c2ccc(C)c(C)c2)C1=O` (stereo not given) → NPYLR7 agonist = -2; NPYLR7 agonist max-min = -5

For convenience, seven of the compounds above:
SMILES	NPYLR7 agonist	NPYLR7 agonist max-min
CCOC(=O)c1cc(-c2ccc(OC)cc2)n(-c2ccc(C(=O)NCCc3cccs3)cc2)n1	0	-17
Cn1ccnc1SCC(=O)Nc1nccs1	-2	-7
COc1ccccc1COC(=O)CCNC(C)=O	1	-1
Cc1ccc(-n2ccnc(SCc3ccc(Cl)cc3)c2=O)cc1	6	4
CC1=C[C@@H](CN2CCN(c3ccccn3)CC2)[C@H](C(C)C)C[C@H]1Cc1nnc(-c2ccncc2)o1	-4	-11
CCOC(=O)C1=C(CN2CCOCC2)N(C)C(=O)NC1c1ccccc1 (stereo not given)	-3	-5
CN1CCN(C(=O)c2cnc3ccccc3n2)CC1=O	-1	-3

Continuation.
SMILES	NPYLR7 agonist	NPYLR7 agonist max-min
COc1ccccc1/C(C)=C/C(=O)NC(C#N)C1CCOC1 (stereo not given)	1&0	-1&-4
CSc1nc(N2CCCC2)c2cnn(CCNC(=O)c3cc(-c4ccccc4)n[nH]3)c2n1	9	7
O=c1cc(CSc2ncnc3c2oc2ccccc23)nc2ccc(Br)cn12	-2	-5
O=C(N[C@H]1CO[C@H]2[C@@H]1OC[C@@H]2Nc1nccc(C2CCCC2)n1)c1ccc(C(F)(F)F)cc1	-3	-12
Cc1c([N+](=O)[O-])c([N+](=O)[O-])nn1CC(=O)NCc1ccccc1	-6	-9
CNC(=O)c1cccc(NS(=O)(=O)C2=CCCCC2)c1	1	3
COc1ccc(CN2CCn3nc(C(=O)NCCCc4ccccc4)cc3C2=O)cc1	-2	-3
N#CC(c1ccccc1)N1CCC(c2ccccc2)=N1 (stereo not given)	-4	-4
CCOc1cc(C2Nc3ccccc3N=C3CC(c4ccccc4)CC(=O)C32)cc(Cl)c1O (stereo not given)	-7	-12
Cc1ccc(-c2cccc(CN3CCCC4(CC3)CNC(=O)O4)c2)o1 (stereo not given)	3	-6
Cc1[nH]cnc1-c1c(-c2ccccc2)ncn1Cc1cnn(-c2ccccc2)c1	12	1
CCOC(=O)c1cc(-c2ccccc2C)n(-c2ccc(C(=O)NCCc3ccc(F)cc3)cc2)n1	5	3
COC(=O)Nc1sc(C)c(-c2ccccc2)c1C#N	6	3
COCCCN(CC(=O)Nc1cc(C(C)(C)C)nn1-c1ccc(C)cc1C)C(=O)c1cccs1	5	18
COCC(=O)N1CCCC(Nc2ccccc2)C1 (stereo not given)	6&7	6&4
CCn1c(C)c(C(=O)CN(C(=O)/C=C/c2ccccc2)C2CCCCC2)c(C)c1C(=O)OC	5	9
C=CCN(CC=C)S(=O)(=O)c1nc2nc(C)c(C)c(C)n2n1	0	-3
Cc1nc2n(n1)C(=O)C(C(c1ccc(Cl)c(Cl)c1)N1CCC(C)CC1)S2 (stereo not given)	2	0
O=C(CSc1nc(=O)n(CC2CCCO2)c2c1CCCC2)NC1CCCCC1 (stereo not given)	-7	-11
Cc1cccc(N2CCN(CC(=O)NCc3ccccc3C)CC2)c1	-5	-7
CN1CCN2CCN(S(=O)(=O)N3CCCCC3)CC2C1=O (stereo not given)	6	5
Cc1[nH]n(-c2nc(-c3ccc(Br)cc3)cs2)c(=O)c1N=Nc1ccccc1C(F)(F)F	7	9
O=S(=O)(NCc1cn2ccccc2n1)c1ccccc1	9	5
CCCCn1c(SCC(=O)NC(C)(C)CC)nc2sc3c(c2c1=O)CCC3	4	12
Cc1cc(=O)oc2c(O)c(O)ccc12	-8	-14
CC1(C)CC(NCC(O)COCc2ccco2)CC(C)(C)N1 (stereo not given)	5	5
Cc1nn(C)c(C)c1NC(=O)CN1C(=O)NC(c2cc(Br)ccc2F)C1=O (stereo not given)	-5	-6
O=S1(=O)N(Cc2ccccc2)C[C@H](O)[C@]12CCNC2	0	1
CCOC(=O)N1CCN(C(=O)c2cc(-c3ccc(OC)cc3OC)nn2-c2ccc(Cl)cc2)CC1	-4	0
CCCc1nc2ccccc2c(C(=O)OCC#N)c1CC	-2	-8
Cn1nc(-c2ccc(F)cc2)nc2c(=O)n(C)c(=O)nc1-2	2	8
CC(C)(C)n1nc2c(c1NC(=O)c1ccc(C(=O)c3ccccc3)cc1)CSC2	-5	-7
CCNC(=O)N1CCSC12C(=O)N(Cc1ccc(F)c(F)c1)c1ccc(C)cc12 (stereo not given)	7	5
CCN(C)c1c(C)nc2c(OCc3ccc(C(=O)OC)cc3)cccn12	12	0
O=C(Nc1c(F)cc(Br)cc1Br)N1CC(=O)N2CCc3ccc(Cl)cc3C2C1 (stereo not given)	5	5
COc1cccc(C(c2ccccn2)N(C)C(=O)C2CCN(C(=O)c3cccs3)CC2)c1 (stereo not given)	-2	-7
CCOC(=O)C(Cc1ccc(Oc2ccc(N)cc2)cc1)(NC(C)=O)C(=O)OCC	-10	-17
Fc1ccc(Nc2nc(NCCCn3ccnc3)nc3[nH]ncc23)cc1	2	-2
